Screening results (PubChem BioAssay)
Calb FLC = C. albicans growth inhibition with fluconazole, primary screen, CaCi-2 strain, Alamar Blue fluorescence; actives 0.57% (n = 300,000); AID 1979, 2009; growth inhibition, % (concentration not given with the values); C. albicans CaCi-2 (fluconazole-resistant clinical isolate) + fluconazole, 48 h;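 active = most replicates above 75%; inconclusive = exactly half above 75%; inactive = most below 75%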;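 also: all wells also contain fluconazole at 8 µg/ml as a sub-toxic cotreatment; 0% = median of DMSO wells and 100% = median of geldanamycin control wells; wells of about 8 µL received 7.5 nL stock; the first replicate is given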
MLL AF4-AF9 inh = inhibitors of AF4 peptide binding to AF9, primary screen, biochemical, AlphaScreen, biotin-AF4 peptide, FLAG-AF9, single point; actives 0.47% (n = 350,000); AID 651704, 2012; inhibition, % at 10 µM;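 active = every replicate reaching a set inhibition limit, whatever the replicate mean, cut at about 25% in these data; inconclusive = mean inhibition reaches that limit but some replicates miss it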;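 also: 0% = plate neutral control median and 100% = total signal loss; the record names both 10 and 1 µM as test concentration; the first replicate is given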
Target sequence (P42568 whole entry, looked up): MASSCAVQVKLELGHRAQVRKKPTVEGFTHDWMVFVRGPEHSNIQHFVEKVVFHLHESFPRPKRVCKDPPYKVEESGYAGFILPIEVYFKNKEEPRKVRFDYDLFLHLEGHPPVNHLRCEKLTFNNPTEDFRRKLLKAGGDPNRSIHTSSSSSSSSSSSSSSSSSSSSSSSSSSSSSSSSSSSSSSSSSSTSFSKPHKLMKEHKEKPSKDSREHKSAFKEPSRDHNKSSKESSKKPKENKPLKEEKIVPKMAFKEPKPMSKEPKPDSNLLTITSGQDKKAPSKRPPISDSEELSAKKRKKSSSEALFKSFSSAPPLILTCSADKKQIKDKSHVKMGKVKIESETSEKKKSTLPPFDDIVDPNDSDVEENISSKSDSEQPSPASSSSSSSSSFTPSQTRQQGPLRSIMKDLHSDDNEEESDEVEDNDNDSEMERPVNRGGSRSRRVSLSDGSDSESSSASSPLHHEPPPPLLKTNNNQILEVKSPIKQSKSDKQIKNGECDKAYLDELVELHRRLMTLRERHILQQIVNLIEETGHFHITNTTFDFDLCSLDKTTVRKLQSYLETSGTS
RanGTP-Imp inh = inhibitors of RanGTP-importin-beta interaction, primary screen, biochemical, FRET, CFP-Ran, YFP-importin-beta, homogeneous; Ran GTPase (GTP-bound) - importin-beta complex; cell-free CFP-Ran/YFP-importin-beta FRET ratio; inhibition, % (concentration not given with the values); actives 1.1% (n = 300,000);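 active = most replicates above 15%; inconclusive = exactly half above 15%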;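 also: 0% = DMSO wells and 100% = Ran loaded with GDP instead of GTP; wells of about 40 µL received 100 nL stock; the first replicate is given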
Beta cell apopt = inhibitors of cytokine-induced beta cell apoptosis, primary screen, luminescence; INS-1E cytokine-induced death, ATP luminescence, 48 h; percent of positive-control rescue, neutral wells zero; protection from apoptosis, % (no concentration beside the values); actives 0.8% (n = 300,000);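 active = all replicates at 75% or more, or half of them and the mean; inconclusive = half reach 75% but not the mean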;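 also: 0% = cytokine-treated negative control wells and 100% = positive control rescue; higher means more ATP so stronger rescue from cytokine killing; wells of about 40 µL received 100 nL stock; the first replicate is given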
T cruzi repl = inhibitors of intracellular T. cruzi growth, primary screen, luminescence, NIH3T3 host cells. T. cruzi beta-gal in NIH3T3, 90 h. inhibition, % (test concentration not listed). actives 1.4% (n = 300,000). AID 1885, 2009;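 active = mean inhibition across valid replicates above about 55%, limit read from the data; inconclusive = mean below that limit but half or more replicates reach it; inactive = mean below it, under half of replicates reach it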;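 also: signal also drops with host cell toxicity which is not excluded here; 0% = plate median of DMSO wells and 100% = zero luminescence signal; higher percent means less beta-gal luminescence so fewer parasites; stock transfer was 50 nL into about 50 µL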
FGF22 binding = binders of human FGF22 protein, primary screen, FGF22 synaptogenesis inhibitor project, biophysical, thermal shift, single point. Fibroblast growth factor 22 (Homo sapiens), Q9HCT0. recombinant FGF22 thermal shift, SYPRO orange fluorescence; percent of sucrose octasulfate shift, DMSO zero. calls only at 9.99 µM. actives 1.5% (n = 340,000). AID 651658, 2012;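 active = melting point raised past a set limit in the mean and every replicate; inconclusive = no clear call; three in four hits are not shown here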
Target sequence (Q9HCT0 whole entry, looked up): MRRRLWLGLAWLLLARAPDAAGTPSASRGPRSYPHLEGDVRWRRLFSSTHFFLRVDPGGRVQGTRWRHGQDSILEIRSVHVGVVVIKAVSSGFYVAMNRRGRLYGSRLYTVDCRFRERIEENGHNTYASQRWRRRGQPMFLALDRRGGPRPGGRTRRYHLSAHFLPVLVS
ALR H2O2 inh = inhibitors of human ALR sulfhydryl oxidase, primary screen, biochemical, H2O2 detection, HRP-luminol luminescence, single point; AID 485317, 2010; actives 3.8% (n = 290,000); purified ALR, DTT oxidation; inhibition, % (no concentration beside the values);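 active = mean and each replicate at 75% or more; inconclusive = only one of the two met; inactive = neither met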;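 also: stock transfer was 7.5 nL into about 7.5 µL; 0% = neutral wells and 100% = wells with inactivated enzyme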
Target sequence (P55789 whole entry, looked up): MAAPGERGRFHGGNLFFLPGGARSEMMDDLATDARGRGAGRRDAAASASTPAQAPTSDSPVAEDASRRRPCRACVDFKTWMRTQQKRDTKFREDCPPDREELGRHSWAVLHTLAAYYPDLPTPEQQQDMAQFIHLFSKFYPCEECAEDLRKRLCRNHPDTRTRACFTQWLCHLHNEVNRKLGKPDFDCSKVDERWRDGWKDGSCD
rRNA inh HTS = reduced GFP signal of wild-type E. coli, primary screen, bacterial rRNA inhibitor project, GFP/RFP fluorescence, OD600, single point; E. coli WT GFP vs humanized-ribosome RFP mutants, 24 h; hits give low values; DMSO median 0, no signal -100; GFP signal change (wild-type ribosome), % (no concentration beside the values); actives 1.6% (n = 350,000); AID 720706, 2013;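 active = significant combined selectivity score with lowered wild-type GFP, culture density cut under 30%, mutant RFP and density less affected; inactive = any of these conditions unmet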; also: one replicate is shown; some compounds called inactive have numbers as strong as hits
rRNA inh HTS OD600 = recorded beside rRNA inh HTS, whose call it bears; OD600 change, %; measured here: OD600 growth;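 optical density of the mix in the first replicate; 0 = DMSO median and -100 = no signal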
rRNA inh HTS RFP = also measured in rRNA inh HTS; calls as there; RFP signal change, %; measured here: RFP humanized mutant strains;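 first replicate; 0 = DMSO median and -100 = no signal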
Active calls of the source: *.

How did CNC(=O)C(=O)N/N=C/c1ccccn1 do in these assays?
Calb FLC: -30; MLL AF4-AF9 inh: 1.4; RanGTP-Imp inh: -2.1; T cruzi repl: -8; FGF22 binding: inactive; ALR H2O2 inh: 1; rRNA inh HTS: 14; rRNA inh HTS OD600: 14; rRNA inh HTS RFP: 1.5

What do the screens show for `Cc1ccc(/C=C/C(=O)NC(C)c2ccccc2)cc1` (stereo not given)?
Calb FLC: -4; MLL AF4-AF9 inh: -1.9; RanGTP-Imp inh: 9.4; Beta cell apopt: -1; T cruzi repl: 3; FGF22 binding: inactive

How did COc1cc2nc(C3CC3)n(NC(=O)c3ccc(F)cc3)c(=O)c2cc1OC do in these assays?
Calb FLC: -4; RanGTP-Imp inh: -0.5; Beta cell apopt: 0; T cruzi repl: 6; ALR H2O2 inh: -3

What do the screens show for `O=C(NCCOc1cccnc1)C1CCC(=O)N(Cc2ccccc2F)C1` (stereo not given)?
Calb FLC: 1; MLL AF4-AF9 inh: 0.9; RanGTP-Imp inh: 3.3; Beta cell apopt: 0; T cruzi repl: -13; FGF22 binding: inactive; ALR H2O2 inh: 2; rRNA inh HTS: -1; rRNA inh HTS OD600: 1; rRNA inh HTS RFP: -1.4

Results for COC(=O)C1=C(C)OC(N)=C(C#N)C1c1ccc(OC)c(CSc2ccccn2)c1 (stereo not given) ?
Calb FLC: -8; RanGTP-Imp inh: 4.2; Beta cell apopt: -1; T cruzi repl: -10; ALR H2O2 inh: -2

Results for COc1ccc(/C=N/Nc2nc(-c3ccc(C)cc3)c(C#N)c(=O)[nH]2)cc1 ?
Calb FLC: 1; MLL AF4-AF9 inh: -0.1; RanGTP-Imp inh: 4.0; T cruzi repl: 7; FGF22 binding: inactive; ALR H2O2 inh: 4; rRNA inh HTS: 6; rRNA inh HTS OD600: 8; rRNA inh HTS RFP: -0.6

Results for Nc1cc(=O)[nH]n1C1CCN(c2ccccc2)CC1 ?
Calb FLC: 3; RanGTP-Imp inh: -8.4; Beta cell apopt: -4; T cruzi repl: -1; ALR H2O2 inh: 94*

How did CC1CCN(C(=O)CCNS(=O)(=O)c2ccc3c(c2)oc(=O)n3C)CC1 do in these assays?
Calb FLC: 5; MLL AF4-AF9 inh: 0.3; RanGTP-Imp inh: -1.6; Beta cell apopt: -3; T cruzi repl: -13; FGF22 binding: inactive; ALR H2O2 inh: -7; rRNA inh HTS: 7; rRNA inh HTS OD600: 11; rRNA inh HTS RFP: -1.5

Results for CCN(c1ccccc1)S(=O)(=O)c1ccc(C(=O)N2CCOCC2)cc1 ?
MLL AF4-AF9 inh: 2.8; Beta cell apopt: -3; FGF22 binding: inactive; ALR H2O2 inh: 0; rRNA inh HTS: 15; rRNA inh HTS OD600: 10; rRNA inh HTS RFP: 1.6

Results for CCOc1cc(S(=O)(=O)Nc2ccc(Cl)cn2)ccc1F ?
Calb FLC: inconclusive; RanGTP-Imp inh: 0.1; Beta cell apopt: -5; T cruzi repl: 2; ALR H2O2 inh: -12

How did COc1ccc(Cl)cc1C(=O)NCCN1CCOCC1 do in these assays?
Calb FLC: -7; MLL AF4-AF9 inh: -1.5; RanGTP-Imp inh: 1.8; Beta cell apopt: -9; T cruzi repl: -15; FGF22 binding: inactive; ALR H2O2 inh: 4; rRNA inh HTS: 1; rRNA inh HTS OD600: 7; rRNA inh HTS RFP: -1.1

How did CCOc1ccccc1C(C(=O)NCCOC)N(CCOC)C(=O)Cn1nnc2ccccc21 (stereo not given) do in these assays?
Calb FLC: 3; MLL AF4-AF9 inh: -3.1; RanGTP-Imp inh: 1.1; Beta cell apopt: -5; T cruzi repl: -2; FGF22 binding: inactive; ALR H2O2 inh: -3; rRNA inh HTS: 21; rRNA inh HTS OD600: 12; rRNA inh HTS RFP: 2.7

How did C/C(=N/N=C(/N)SCc1ccccc1)C(C)(C)C do in these assays?
Calb FLC: inconclusive; MLL AF4-AF9 inh: 1.5; RanGTP-Imp inh: -0.9; Beta cell apopt: -5; T cruzi repl: -25; FGF22 binding: inactive; ALR H2O2 inh: -3; rRNA inh HTS: 6; rRNA inh HTS OD600: -4; rRNA inh HTS RFP: -7.7

What do the screens show for `O=S(=O)(c1ccc(NCCOCCO)nc1)N1CCCCC1`?
MLL AF4-AF9 inh: 0.9; Beta cell apopt: -2; FGF22 binding: inactive; rRNA inh HTS: 10; rRNA inh HTS OD600: 9; rRNA inh HTS RFP: -0.3

Results for O=C(c1cc2cc(Br)ccc2o1)N1CCOCC1 ?
Calb FLC: 24; MLL AF4-AF9 inh: -7.2; RanGTP-Imp inh: -0.7; Beta cell apopt: 0; T cruzi repl: -5; FGF22 binding: inactive; rRNA inh HTS: 4; rRNA inh HTS OD600: 6; rRNA inh HTS RFP: -0.3

How did CCCCn1cc(C(C)(C)C)c(C#N)c1NC(C)=O do in these assays?
Calb FLC: -7; MLL AF4-AF9 inh: -0.4; RanGTP-Imp inh: 3.3; Beta cell apopt: -3; T cruzi repl: -8; FGF22 binding: inactive; ALR H2O2 inh: -1; rRNA inh HTS: 3; rRNA inh HTS OD600: 5; rRNA inh HTS RFP: -1.9

How did CC1CCc2c(sc(NC(=O)CSc3nnc(-c4ccccc4)o3)c2C#N)C1 (stereo not given) do in these assays?
Calb FLC: -10; RanGTP-Imp inh: -1.7; Beta cell apopt: -1; T cruzi repl: 2

What do the screens show for `COc1ccc(C(=O)OCC(=O)N2CCCCC2)cc1[N+](=O)[O-]`?
Calb FLC: -11; MLL AF4-AF9 inh: -3.0; RanGTP-Imp inh: -2.5; Beta cell apopt: 4; T cruzi repl: -3; FGF22 binding: inactive; ALR H2O2 inh: 2; rRNA inh HTS: 2; rRNA inh HTS OD600: 10; rRNA inh HTS RFP: 0.4

Results for COC(=O)C(C)N1C(=O)S/C(=C/c2cc(C)n(C(C)C)c2C)C1=O (stereo not given) ?
Calb FLC: 24; RanGTP-Imp inh: -2.0; Beta cell apopt: 6; T cruzi repl: 20; ALR H2O2 inh: 9

Results for Cc1ccc(C(=O)CN(C(=O)c2ccc(Cl)cc2)N2C(=O)CCC2=O)cc1 ?
Calb FLC: 27; MLL AF4-AF9 inh: -1.3; RanGTP-Imp inh: 6.8; Beta cell apopt: 1; T cruzi repl: -16; FGF22 binding: inactive; ALR H2O2 inh: -1; rRNA inh HTS: 14; rRNA inh HTS OD600: 12; rRNA inh HTS RFP: 0.7

Results for O=C1CC(c2nc3ccccc3[nH]2)CN1c1ccccc1 (stereo not given) ?
Calb FLC: -16; RanGTP-Imp inh: 1.4; Beta cell apopt: 5; T cruzi repl: -9; ALR H2O2 inh: -14

What do the screens show for `COC(=O)c1[nH]c(C)c(/C(O)=C2\C(=O)C(=O)N(CCN(C)C)C2c2ccccc2OC)c1C` (stereo not given)?
Calb FLC: -2; RanGTP-Imp inh: -2.3; Beta cell apopt: -6; T cruzi repl: -7; ALR H2O2 inh: -10

How did Cc1cc(OCC(=O)OCC(=O)c2c(N)n(C)c(=O)n(C)c2=O)ccc1Cl do in these assays?
MLL AF4-AF9 inh: 3.8; Beta cell apopt: -6; FGF22 binding: inactive; ALR H2O2 inh: 7; rRNA inh HTS: -4; rRNA inh HTS OD600: 5; rRNA inh HTS RFP: 10

What do the screens show for `Cc1cc(NC(=O)CCC(=O)N(Cc2ccco2)C2(C(=O)NC3CCCC3)CCCCC2)no1`?
Calb FLC: 23; MLL AF4-AF9 inh: 0.5; RanGTP-Imp inh: -0.1; Beta cell apopt: -2; T cruzi repl: 0; FGF22 binding: inactive; ALR H2O2 inh: 1; rRNA inh HTS: -1; rRNA inh HTS OD600: -1; rRNA inh HTS RFP: -0.1

What do the screens show for `O=C(COC(=O)c1cccc(-n2cnnn2)c1)Nc1c(Cl)cccc1C(F)(F)F`?
Calb FLC: -6; MLL AF4-AF9 inh: -0.3; RanGTP-Imp inh: 4.9; Beta cell apopt: -6; T cruzi repl: -13; FGF22 binding: inactive; ALR H2O2 inh: -2; rRNA inh HTS: 8; rRNA inh HTS OD600: 13; rRNA inh HTS RFP: 2.4

What do the screens show for `COc1cc(NC(=O)C2=CC(c3cccs3)=NS(=O)(=O)N2C)cc(OC)c1OC`?
Calb FLC: 3; MLL AF4-AF9 inh: 5.5; RanGTP-Imp inh: -1.9; Beta cell apopt: -1; T cruzi repl: -13; FGF22 binding: inactive; ALR H2O2 inh: -12; rRNA inh HTS: -7; rRNA inh HTS OD600: -16; rRNA inh HTS RFP: -1.0

How did Nc1nn(-c2cccc(F)n2)cc1-c1ccc(Cl)cc1 do in these assays?
Calb FLC: -25; MLL AF4-AF9 inh: -5.3; RanGTP-Imp inh: 1.7; T cruzi repl: 29; FGF22 binding: inactive; rRNA inh HTS: 12; rRNA inh HTS OD600: 16; rRNA inh HTS RFP: -0.2

How did CC1(C)CC(=O)C=C(NNC(=O)c2ccc(N)cc2)C1 do in these assays?
Calb FLC: 11; MLL AF4-AF9 inh: -2.1; RanGTP-Imp inh: -0.6; Beta cell apopt: -1; T cruzi repl: -1; FGF22 binding: inactive; ALR H2O2 inh: 51; rRNA inh HTS: 11; rRNA inh HTS OD600: -2; rRNA inh HTS RFP: -4.1

What do the screens show for `CN(C(=O)C1CCCN1S(=O)(=O)c1ccc(Cl)cc1)c1ccccc1` (stereo not given)?
MLL AF4-AF9 inh: -0.4; Beta cell apopt: -4; FGF22 binding: inactive; rRNA inh HTS: -4; rRNA inh HTS OD600: 1; rRNA inh HTS RFP: 1.1

Results for Cc1ccnc(NC(=O)CCC(=O)N(CC(=O)NCc2ccc(F)cc2)c2ccc(F)cc2)c1 ?
Calb FLC: 6; MLL AF4-AF9 inh: -0.4; RanGTP-Imp inh: -0.7; Beta cell apopt: -3; T cruzi repl: 11; FGF22 binding: inactive; ALR H2O2 inh: -11; rRNA inh HTS: 2; rRNA inh HTS OD600: 2; rRNA inh HTS RFP: 0.2

What do the screens show for `O=C(Nc1cc([N+](=O)[O-])ccc1F)c1ccc2ccccc2c1`?
Calb FLC: 8; MLL AF4-AF9 inh: -7.2; RanGTP-Imp inh: -2.9; Beta cell apopt: 5; T cruzi repl: 2; FGF22 binding: inactive; ALR H2O2 inh: -2; rRNA inh HTS: 8; rRNA inh HTS OD600: 4; rRNA inh HTS RFP: 3.9

What do the screens show for `CC1CCCC(NC(=O)COC(=O)[C@@H](NC(=O)c2ccc(F)cc2)C(C)C)C1C` (stereo not given in full)?
MLL AF4-AF9 inh: 6.4; Beta cell apopt: -2; FGF22 binding: inactive; ALR H2O2 inh: -2; rRNA inh HTS: 3; rRNA inh HTS OD600: 7; rRNA inh HTS RFP: 1.7

What do the screens show for `COc1ccc(CCn2c(C)ccc2C)cc1OC`?
Calb FLC: -9; RanGTP-Imp inh: 2.3; Beta cell apopt: 0; T cruzi repl: 22; ALR H2O2 inh: -7

The list is partial, so the mix of outcomes need not match the whole.
